# Source: PubChem
# Rce1 inhib: blocks yeast Ras-converting enzyme; AID 2563; calls only; hit rate 0.27% among 290,000; yeast membranes, quenched prenylated peptide cleavage fluorescence; Q03530;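 active = fall in fluorescence gain of 50% or more versus controls, with final raw signal at or below 3038400; inconclusive = same 50% fall but final raw signal above 3038400; inactive = fall in fluorescence gain under 50%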;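 also: plate controls were neutral control wells for no effect and wells lacking membranes for full effect; tested at 10 µM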
# HIV Env fusion: inhibitors of HIV Env-mediated cell fusion. AID 651610. inhibition, % at 12.3 µM. hit rate 1.1% among 360,000. HeLa-JRFL Env/CEM21 cell fusion, luciferase;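 active = mean replicate inhibition score of at least 50 and every replicate individually at or above 50; inconclusive = only one of the two criteria met; inactive = mean below 50 and not all replicates reaching 50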;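 also: 0% = plate neutral controls and 100% = maraviroc near 300 nM; one replicate is shown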
# Yeast UUG start: yeast start codon fidelity modulation; S. cerevisiae UUG-firefly luciferase reporter, luminescence/redox ratio; hit rate 0.13% among 350,000; activity score, % at 18.7 µM;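 active = replicate mean at a twofold rise or more, about +100% in these data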;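 also: firefly luciferase made from a UUG start codon reports start codon fidelity; reporter light over untreated wells divided by growth signal over untreated wells; some hits fall short of that in this replicate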
# eIF4H FP inh: inhibitors of RNA binding by human eIF4H; Q15056; eIF4H fluorescence polarization binding assay; inhibition, % at 35 µM; hit rate 0.94% among 290,000; AID 2012;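 active = 50% or more with normal probe brightness, or confirmed in later tests; inconclusive = above 50% with abnormal brightness, or retests that disagree; inactive = below 50% or failed in later tests; about a fifth of its hits are not listed in these tables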;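 also: calls also rest on retests at 20 µM and on dose response follow-up; 0% = protein and probe with vehicle and 100% = probe without protein; strong numbers were not always called active; many hits fall short of the cut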
# CSC inhib: blocks cancer stem cells; hit rate 1.1% among 300,000; inhibition, % at 7.5 µM; AID 2717; cancer stem cell-like cells viability, luminescence;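 active = mean at 75% or more and at least half the replicates too; inconclusive = mean and replicates disagree; tested in HMLE shEcad cells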;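 also: 0% = median of negative and 100% = median of positive control wells; the first replicate is given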
# PABP FP inh: PABP-poly(A) binding inhibition | PABP-poly(A) RNA binding, fluorescence polarization | inhibition, % at 35 µM | hit rate 1% among 290,000 | AID 2014;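 active = 50% or more with normal probe brightness, or confirmed in later tests; inconclusive = above 50% with abnormal brightness, or retests that disagree; inactive = below 50% or failed in later tests; about a fifth of its hits are not listed in these tables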;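 also: calls also rest on retests at 20 µM and on dose response follow-up; controls were probe without protein and protein plus probe with vehicle; some compounds called inactive have numbers as strong as hits; many hits fall short of the cut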
# Target sequence (P11940 whole entry, looked up): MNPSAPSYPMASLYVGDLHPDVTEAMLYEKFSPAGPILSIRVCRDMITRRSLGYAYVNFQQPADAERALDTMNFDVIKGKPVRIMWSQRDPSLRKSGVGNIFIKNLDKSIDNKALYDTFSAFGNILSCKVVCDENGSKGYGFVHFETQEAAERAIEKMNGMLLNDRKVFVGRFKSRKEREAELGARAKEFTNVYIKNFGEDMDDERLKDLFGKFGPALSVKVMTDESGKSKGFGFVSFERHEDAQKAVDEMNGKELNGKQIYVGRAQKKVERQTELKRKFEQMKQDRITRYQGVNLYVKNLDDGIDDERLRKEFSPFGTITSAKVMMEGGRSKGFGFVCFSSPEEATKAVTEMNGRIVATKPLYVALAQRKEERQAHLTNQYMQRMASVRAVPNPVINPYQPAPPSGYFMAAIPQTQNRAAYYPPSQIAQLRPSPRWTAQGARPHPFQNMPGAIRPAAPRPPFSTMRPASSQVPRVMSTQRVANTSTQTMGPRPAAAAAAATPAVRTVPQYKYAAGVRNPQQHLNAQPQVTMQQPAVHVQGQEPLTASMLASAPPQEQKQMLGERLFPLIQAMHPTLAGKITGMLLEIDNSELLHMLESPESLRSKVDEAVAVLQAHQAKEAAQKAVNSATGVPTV
# MT1-MMP act inh: inhibitors of human MT1-MMP activation; HT1080 RFP-PRO-GFP cells, GFP/RFP ratio fluorescence, overnight; percent of plate control window, DMSO zero; GFP/RFP ratio change, % at 20 µM; hit rate 0.061% among 360,000; AID 651647;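 active = GFP/RFP ratio change of at least 30% with cell ATP level not reduced by more than half and red fluorescence within 50% of control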; also: strong numbers were not always called active
#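 Assay system: HT1080 RFP-PRO-GFP cells | Dosing: 20 µM single dose, 1% DMSO | Incubation: Cells overnight before dosing, compound overnight, 37 °C, 5% CO2 | Evaluation: GFP/RFP fluorescence ratio | Control set: DMSO-only wells and HT1080 RFP-L50D-GFP cell wells as references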
# eIF4H FP inh retest: recorded beside eIF4H FP inh, whose call it bears; inhibition, %; compound at 20 µM; confirmation average;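 mean of two retest wells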
# PABP FP inh retest: further read-out of PABP FP inh, marked with its call; inhibition, %; compound at 20 µM; confirmation repeats;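 mean of two retest wells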
# MT1-MMP act inh RFP: further read-out of MT1-MMP act inh, marked with its call; RFP signal change, %; measured here: RFP expression control read;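 0 = vehicle wells; hits needed this value within 50% of zero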
# Numbers without * were called inactive; i = inactive; ? = inconclusive; · = not tested or not shown; & = joins results of further samples; [ ] = dose if it differs, or a comment. Only part of the results is shown; rates above refer to the full screens.
# Preview:
SMILES,Rce1 inhib,HIV Env fusion,Yeast UUG start,eIF4H FP inh,CSC inhib,PABP FP inh,MT1-MMP act inh,MT1-MMP act inh RFP,others
CNC(=S)NCc1ccc2[nH]c(C)cc2c1,i,-9,-20,0,4,-8,3,5,
COc1ccc(C(CC(=O)N2CCOCC2)c2c(OC)cc(OC)c3ccc(=O)oc23)cc1 (stereo not drawn),i,1,-9,31,5,20,1,2,
O=C(COc1coc(CN2CCN(c3ccccc3)CC2)cc1=O)Nc1ccc(F)cc1,i,·,-1,·,-2,·,-7,-9,
NC(=O)C1CCN(C(=O)c2ccc(Cl)c(S(=O)(=O)N3CCCCCC3)c2)CC1,·,-1,-1,·,2,·,-2,-2,
CCCCn1c(N)c(N(CCOC)C(=O)c2ccc(-n3c(C)ccc3C)cc2)c(=O)[nH]c1=O,i,-8,4,·,-2,·,-5,3,
CC(=O)NC(c1ccccc1)c1nc(-c2cccc(F)c2)cs1 (stereo not drawn),·,-8,-2,·,·,·,2,2,
CCN(CC)S(=O)(=O)c1ccc(C)c(NC(=O)Cn2c(=O)cnc3ccccc32)c1,i,15,·,4,·,2,-7,-7,
O=C(CCc1ccccc1)NC(=S)Nc1ccc(S(=O)(=O)N2CCOCC2)cc1,i,·,·,-5,-2,6,-4,-10,
CC1CCN(S(=O)(=O)c2ccc3c(c2)c(=O)c(C(=O)N2CCOCC2)cn3C)CC1,i,-5,-20,-2,3,4,-1,4,
O=C(O)CCCn1cc(NC(=O)COc2ccccc2)cn1,i,6,-22,3,-3,-3,1,0,
CCN1CCN(C(=O)Nc2ccccc2OC)CC1,·,·,-6,-2,11,0,6,6,
CCOC(=O)c1sc(C(=O)OCC)c(OCCO)c1OCCO,i,18,-15,-3,13,0,2,4,
O=C(C1Cc2ccccc2CN1S(=O)(=O)c1ccc(F)cc1)N1CCCCC1 (stereo not drawn),i,23,-9,-5,-10,-12,-1,2,
CSc1ccccc1NC(=O)COc1ccc(Cl)cc1Cl,i,-1,·,-8,8,-8,-3,-12,
O=C1/C(=C/c2cccnc2)SC(=S)N1Nc1ccccc1,i,-8,-15,-15,-4,-3,0,5,
CC(C)(C)SCCNC(=O)COc1ccc(Cl)cc1,i,·,-22,-4,3,-8,0,-1,

# The whole of this part, previewed entries included:
SMILES,Rce1 inhib,HIV Env fusion,Yeast UUG start,eIF4H FP inh,CSC inhib,PABP FP inh,MT1-MMP act inh,MT1-MMP act inh RFP,others
CNC(=S)NCc1ccc2[nH]c(C)cc2c1,i,-9,-20,0,4,-8,3,5,
COc1ccc(C(CC(=O)N2CCOCC2)c2c(OC)cc(OC)c3ccc(=O)oc23)cc1 (stereo not drawn),i,1,-9,31,5,20,1,2,
O=C(COc1coc(CN2CCN(c3ccccc3)CC2)cc1=O)Nc1ccc(F)cc1,i,·,-1,·,-2,·,-7,-9,
NC(=O)C1CCN(C(=O)c2ccc(Cl)c(S(=O)(=O)N3CCCCCC3)c2)CC1,·,-1,-1,·,2,·,-2,-2,
CCCCn1c(N)c(N(CCOC)C(=O)c2ccc(-n3c(C)ccc3C)cc2)c(=O)[nH]c1=O,i,-8,4,·,-2,·,-5,3,
CC(=O)NC(c1ccccc1)c1nc(-c2cccc(F)c2)cs1 (stereo not drawn),·,-8,-2,·,·,·,2,2,
CCN(CC)S(=O)(=O)c1ccc(C)c(NC(=O)Cn2c(=O)cnc3ccccc32)c1,i,15,·,4,·,2,-7,-7,
O=C(CCc1ccccc1)NC(=S)Nc1ccc(S(=O)(=O)N2CCOCC2)cc1,i,·,·,-5,-2,6,-4,-10,
CC1CCN(S(=O)(=O)c2ccc3c(c2)c(=O)c(C(=O)N2CCOCC2)cn3C)CC1,i,-5,-20,-2,3,4,-1,4,
O=C(O)CCCn1cc(NC(=O)COc2ccccc2)cn1,i,6,-22,3,-3,-3,1,0,
CCN1CCN(C(=O)Nc2ccccc2OC)CC1,·,·,-6,-2,11,0,6,6,
CCOC(=O)c1sc(C(=O)OCC)c(OCCO)c1OCCO,i,18,-15,-3,13,0,2,4,
O=C(C1Cc2ccccc2CN1S(=O)(=O)c1ccc(F)cc1)N1CCCCC1 (stereo not drawn),i,23,-9,-5,-10,-12,-1,2,
CSc1ccccc1NC(=O)COc1ccc(Cl)cc1Cl,i,-1,·,-8,8,-8,-3,-12,
O=C1/C(=C/c2cccnc2)SC(=S)N1Nc1ccccc1,i,-8,-15,-15,-4,-3,0,5,
CC(C)(C)SCCNC(=O)COc1ccc(Cl)cc1,i,·,-22,-4,3,-8,0,-1,
Cn1c(CC(=O)Nc2ccccc2)cc2ccccc21,i,9,-5,-11,-4,8,2,2,
O=CNn1cnc2c(oc3nc(-c4ccccc4)cc(-c4ccco4)c32)c1=O,i,6,·,51*,22,14,-5,-5,eIF4H FP inh retest=75*;PABP FP inh retest=19
CC(C)=CCc1c([C@@H]2CCc3ccc(O)cc3O2)cc2c(c1O)OC(C)(C)C=C2,i,·,-3,·,-12,·,12,0,
CC(=O)c1ccc(C(=O)Nc2ccc(N3CCOCC3)cc2)cc1,i,·,-10,-5,0,-6,9,8,
C=CCNC(=S)N1CCN(CCNC2=CC(=O)CC(C)(C)C2)CC1,i,-2,·,-6,-10,2,-2,1,
Cc1nc(C)c(/C(O)=C/c2nc3ccccc3oc2=O)s1,i,6,·,30,18,4,-1,-3,
COc1ccc(-c2nnc3ccc(SCC(=O)N4CCCCC4)nn23)cc1OC,i,8,-7,0,-11,4,-7,1,
c1ccc(CCNc2nc(-c3ccccn3)nc3ccccc23)cc1,i,25,-36,24,43,-8,7,-16,
CCOC(=O)Cn1ccc(NC(=O)COc2ccc(F)cc2F)n1,i,-7,-19,-13,-10,6,2,4,
# More results.
SMILES,Rce1 inhib,HIV Env fusion,Yeast UUG start,eIF4H FP inh,CSC inhib,PABP FP inh,MT1-MMP act inh,MT1-MMP act inh RFP,others
CCOc1ccccc1C(=O)Oc1cc(C)[nH]c(=O)c1[N+](=O)[O-],i,-8,-7,3,-7,-1,2,7,
CCc1ccccc1NS(=O)(=O)c1ccc2[nH]cc(C(=O)NCc3ccco3)c(=O)c2c1,i,-14,0,·,29,·,3,2,
Cc1[nH]c2ccc(C(=O)N3CCCC3)cc2c1C,i,-4,-34,-2,3,-4,-2,0,
O=C1N=C(N2CCCCC2)SC1=C1CCCCC1,i,·,-11,4,-7,14,5,3,
C=CCn1c(SCC(=O)NCCOC)nc2scc(-c3ccco3)c2c1=O,i,-31,-5,32,1,44,-12,4,
O=C(c1cccc(Cl)c1)N1CCN(c2ccccn2)CC1,i,·,-27,4,2,-3,3,4,
CCOc1ccccc1CN1CCNC(=O)C1CC(=O)N(C)Cc1nonc1C (stereo not drawn),i,7,-10,-15,-5,-6,3,7,
O=C(CSc1n[nH]c(-c2cccs2)n1)N1CCN(S(=O)(=O)c2ccc3ccccc3c2)CC1,i,·,-16,-9,-2,11,-2,-23,
Cc1cccc(C(=O)N2CCC(=O)N(C(COCc3cccc(Cl)c3)Cc3ccccc3)CC2)c1 (stereo not drawn),i,-6,5,-11,-1,-6,2,-3,
CCC(Sc1nc2c(cnn2-c2ccccc2)c(=O)[nH]1)C(=O)OC (stereo not drawn),i,12,-5,-11,-8,-1,1,5,
O=C(COC(=O)c1ccccc1Nc1ccccc1)NCc1ccco1,i,-27,-20,-5,-1,-1,-1,-2,
Cc1nc2sc3c(c2c(=O)n1NC(=O)CCBr)CCCC3,i,17,·,-14,1,-7,-1,4,
Cc1ccc(Cc2cnc(NC(=O)C3=NCCN3)s2)cc1,i,-2,·,6,14,6,·,·,
CC(C)(C)n1ncc2c(=O)n(Cc3cc(F)c(Cl)cc3Cl)cnc21,·,19,-4,·,·,·,2,-15,
Cc1ccsc1C(=O)NC1CCCCC1C (stereo not drawn),·,2,-13,·,-15,·,0,2,
O=C(Nc1cccc(F)c1)c1ccc(S(=O)(=O)N2CCCCC2)cc1,i,1,-12,-14,2,4,6,2,
CCC(C)Nc1nc(-c2cccc(OC)c2O)nc2ccccc12 (stereo not drawn),i,24,-13,-8,60,?,-15,-11,
Cc1noc(C)c1NC(=O)N(C)C[C@@H]1Oc2ccc(NS(=O)(=O)c3c(C)noc3C)cc2C(=O)N([C@H](C)CO)C[C@H]1C,·,-8[16.7 µM],-13&-19,·,-13,·,3,3,
CCOC(=O)c1c(NC(=O)COc2cccc3c2CCN(CC)C3=O)sc2c1CCC2,i,·,-10,1,-1,0,·,·,
O=C(CN1CCN(S(=O)(=O)c2ccc(Br)cc2)CC1)Nc1ccc2c(c1)OCO2,i,·,-3,6,-7,-1,-6,-1,
O=C(Nc1cccc([N+](=O)[O-])c1)c1ccc2snnc2c1,i,-103,9,-2,5,4,2,1,
O=C(CSc1nnc(-c2ccncc2)o1)NC1CCCCC1,i,0,·,1,4,18,4,7,
COc1ccc(C(=O)Nc2ccccc2N2CCOCC2)cc1Br,i,·,-9,·,35,·,1,-6,
Cc1ccc(-c2csc(/C(C#N)=C(\O)CN3CCN(C(=O)c4ccco4)CC3)n2)cc1,i,·,-13,29,-19,11,-1,7,
O=C(c1ccc(Br)cc1)c1cc([N+](=O)[O-])ccc1N1CCCCC1,i,-92,15,-6,72,1,15,-9,
# (listing goes on)
SMILES,Rce1 inhib,HIV Env fusion,Yeast UUG start,eIF4H FP inh,CSC inhib,PABP FP inh,MT1-MMP act inh,MT1-MMP act inh RFP,others
O=C(NNC(=S)Nc1ccccc1C(F)(F)F)c1cccnc1,i,-11,·,0,-12,-7,-3,4,
Cc1cccc(-c2nc(CN3CCCC(C(=O)NC4CCCCCC4)C3)c(C)o2)c1 (stereo not drawn),i,?,-12,2,24,-2,-9,-9,
Cc1cc(SCC(=O)N2CCC(c3noc4ccc(F)cc34)CC2)nc2ccccc12,i,?,-14,-19,·,6,-7,-4,
CN(C)c1nc(N(C)C)nc(N2CCCCC2)n1,i,9,-22,0,12,-7,-4,3,
O=C(O)c1cccc(Nc2nc(-c3cc4ccccc4oc3=O)cs2)c1,i,-24,-19,21,·,40,-2,2,
CC(=O)Nc1cnc(-c2cccc(C(=O)N3CCOCC3)c2)cn1,·,-26,1,·,·,·,-3,4,
COc1ccc(/C(C)=C2/SC(=S)N(CCC(=O)O)C2=O)cc1,i,27,-15,4,-2,-2,4,4,

# 3 structures from above, sorted by count of non-hydrogen atoms, high to low.
SMILES,Rce1 inhib,HIV Env fusion,Yeast UUG start,eIF4H FP inh,CSC inhib,PABP FP inh,MT1-MMP act inh,MT1-MMP act inh RFP,others
O=C(O)c1cccc(Nc2nc(-c3cc4ccccc4oc3=O)cs2)c1,i,-24,-19,21,·,40,-2,2,
CC(=O)Nc1cnc(-c2cccc(C(=O)N3CCOCC3)c2)cn1,·,-26,1,·,·,·,-3,4,
O=C(NNC(=S)Nc1ccccc1C(F)(F)F)c1cccnc1,i,-11,·,0,-12,-7,-3,4,
